# Screens from PubChem.
# 12-LOX inh = Primary qHTS assay for inhibitors of human arachidonate 12S-lipoxygenase (ALOX12): Round 2 | Polyunsaturated fatty acid lipoxygenase ALOX12 (Homo sapiens), P18054 | purified 12hLO, xylenol orange hydroperoxide absorbance | Potency, µM (titrated, usually from 108 µM), for the others: at the top dose activity change, negative = inhibition, most hits filed as inhibitors | actives 1.1% (n = 580,000) | AID 1671190, 2021; further: potency means the concentration at half of the fitted maximal effect; on the % scale 0 is the no-effect control and ±100 the full control effect
#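 Hydroperoxide product was detected by ferrous iron/xylenol orange as the 573 to 405 nm absorbance ratio. Arachidonic acid at 40 uM (final) was turned over for 30 min at room temperature by 150 nM human 12hLO, pH 7.0 Hepes buffer, after 15 min compound preincubation.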
# RGS4 inhibitor = Inhibitors of Regulator of G Protein Signaling (RGS) 4: qHTS; Transcreener GDP fluorescence polarization, RGS4-accelerated GTP hydrolysis; Potency, µM (doses to about 114 µM), for inactives: at the highest dose activity change, negative = inhibition, actives largely listed as inhibitors; Regulator of G-protein signaling 4 (Homo sapiens), P49798; actives 0.039% (n = 390,000); further: potency means the concentration at half of the fitted maximal effect; on the % scale 0 is the no-effect control and ±100 the full control effect; nearly all actives have a fitted effect of over 75% in size; some results filed as inactive show a strong effect at the top dose
# Target sequence (P49798 whole entry, looked up): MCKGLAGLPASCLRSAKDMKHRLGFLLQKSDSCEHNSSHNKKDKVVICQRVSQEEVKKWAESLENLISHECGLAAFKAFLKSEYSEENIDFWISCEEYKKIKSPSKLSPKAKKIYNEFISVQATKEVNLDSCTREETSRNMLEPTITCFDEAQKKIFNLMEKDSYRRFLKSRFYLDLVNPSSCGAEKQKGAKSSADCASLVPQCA
#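 MLSMR compounds (23 nl, pin-transferred) preincubated 10 min at room temperature with a 500nM (2x) first reagent, then RGS4 at 900nM (2x) plus Transcreener GDP mix added; fluorescence polarization (620/688 nm) read before and after 90 min at 30 °C.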
# GLS inh = qHTS for Inhibitors of Glutaminase (GLS); Potency, µM (highest dose often 45.5 µM), for inactives: top-dose activity change, negative = inhibition, usual class: inhibitors; GLS enzymatic activity, qHTS titration; Glutaminase kidney isoform, mitochondrial (Homo sapiens), O94925; actives 0.21% (n = 410,000); further: potency means the concentration at half of the fitted maximal effect; on the % scale 0 is the no-effect control and ±100 the full control effect
#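 Human kidney-isoform GLS in 45 mM KH2PO4 pH 8.2, 0.02% Tween-20, with compound, started with 1mM L-Glutamine (added stock). Glutamate oxidase/HRP/Amplex red coupled fluorescence read at start and after 30 min at RT.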
# ERG Ets-DNA blk = qHTS for Small Molecule Inhibitors of the ERG Ets/DNA interaction; Transcriptional regulator ERG (Homo sapiens), P11308; fluorescence polarization, His-ERG Ets domain / labelled DNA; Potency, µM (titrated, usually from 76.9 µM), without a hit: at the highest dose FP activity, negative = inhibition, usual class: inhibitors; actives 0.028% (n = 370,000); active means well fitted inhibition curve with a large enough effect in the polarisation, with a control signal flat; inconclusive means small, poorly fitted or top-dose-only effect, or effect the other way, or a change in a side signal; inactive means no such curve, though single readings can be large or run the other way; the % refers to the polarisation;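 further: polarization taken with two DNA probes labelled with fluorescein and Texas red; potency means the concentration at half of the fitted maximal effect; % of control where 0% means no effect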
#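 His-tagged ERG Ets domain (1 uM in the protein solution; 300mM KCl, 50mM Tris-HCl, 1mM EDTA, 1mM DTT, pH 7.5) received compound, then a probe mix of 5 nM fluorescein-DNA and 100nM Texas-615-DNA. Fluorescence polarization was read for both dyes.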
# G9a block = qHTS Assay for Inhibitors of Histone Lysine Methyltransferase G9a; Potency, µM (series often up to 102 µM), for the others: at the top dose activity, negative = inhibition, usual class: inhibitors; actives 8.8% (n = 350,000); AID 504332, 2011; G9a H3K9 monomethylation, AlphaScreen, 2 h; further: potency means the concentration at half of the fitted maximal effect; on the % scale 0 is the no-effect control and ±100 the full control effect; nearly all actives have a fitted effect of over 75% in size
# Target sequence (Q96KQ7 913-1193 limits assumed): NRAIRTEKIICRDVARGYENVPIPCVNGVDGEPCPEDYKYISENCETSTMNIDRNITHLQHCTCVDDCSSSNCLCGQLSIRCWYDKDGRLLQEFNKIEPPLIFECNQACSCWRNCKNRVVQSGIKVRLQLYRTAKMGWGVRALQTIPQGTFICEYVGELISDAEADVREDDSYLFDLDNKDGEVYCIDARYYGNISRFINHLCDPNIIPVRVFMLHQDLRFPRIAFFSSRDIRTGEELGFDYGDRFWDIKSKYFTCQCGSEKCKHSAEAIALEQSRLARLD
#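 Readings reflect AlphaScreen signal from monomethyl-H3K9 antibody detection. HMT at 20 nM; substrate b-H3K9 500 nM; cofactor SAM 20 uM; 2 h RT reaction; compounds tested as titrations in qHTS with 15 min preincubation.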
# PI4K2A inh = qHTS for small molecular inhibitors of PI4K2A. Phosphatidylinositol 4-kinase type 2-alpha (Homo sapiens), Q9BTU6. purified PI4K2A, ADP-Glo luminescence, 1 h; active compounds read low. activity change, negative = inhibition, % at 76.9 µM. actives 0.13% (n = 420,000). AID 1346378, 2018; in the data active means activity change below about -50%; inconclusive means mostly about -30% to -49%;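 further: -100% = wells without enzyme as full effect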
# Target sequence (Q9BTU6 whole entry, looked up): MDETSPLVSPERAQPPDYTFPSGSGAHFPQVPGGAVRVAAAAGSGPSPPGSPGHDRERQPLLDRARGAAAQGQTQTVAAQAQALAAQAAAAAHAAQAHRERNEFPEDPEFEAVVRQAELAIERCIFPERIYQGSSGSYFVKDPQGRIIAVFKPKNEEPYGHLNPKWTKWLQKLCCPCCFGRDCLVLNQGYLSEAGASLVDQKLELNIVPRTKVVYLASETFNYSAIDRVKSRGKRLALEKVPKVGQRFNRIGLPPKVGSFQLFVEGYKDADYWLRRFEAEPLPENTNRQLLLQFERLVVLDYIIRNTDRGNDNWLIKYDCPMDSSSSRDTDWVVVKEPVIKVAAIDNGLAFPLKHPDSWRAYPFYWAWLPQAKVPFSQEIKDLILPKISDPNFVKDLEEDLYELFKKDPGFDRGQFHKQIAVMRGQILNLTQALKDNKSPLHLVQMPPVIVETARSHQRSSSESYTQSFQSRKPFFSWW
#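 PI4K2A activity was measured by ADP-Glo luminescence: enzyme (4 ug/mL stock) and phosphatidylinositol (1.2 mM stock) in Tris pH 7.5/MgCl2/EGTA/Triton X-100 buffer were reacted with ATP (300 microM stock) for one hour at ambient temperature.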
# * = called active by the depositor; ? = inconclusive; / = no result given; & = joins results of further samples; [ ] = dose if it differs, or a comment. Unless noted, the call rests on the fitted dose curve; in most records, active means well fitted curve in the direction sought with a large enough effect; inconclusive means small, poorly fitted or top-dose-only effect, or another doubt; inactive means no such curve, though single readings can be large; an effect the other way counts as inactive or inconclusive. These rows are one share of the data (hit frequency here may not be typical).
nr	canonical_smiles	PI4K2A inh	ERG Ets-DNA blk	RGS4 inhibitor	12-LOX inh	G9a block	GLS inh
1	Nc1nc(CN2CCN(C(c3ccccc3)c3ccccc3)CC2)nc(Nc2ccccc2)n1	-1	2%	-5%	?	45µM*	-13%
2	COc1ccccc1C=NN=C1c2ccccc2-c2ccccc21	9	9%	-10%	-6%	/	-8%
3	CCN=c1scc(-c2ccco2)n1/N=C/c1ccc(OC)c(O)c1	-3	-3%	?	-28%	14µM*	40%
4	COc1cccc(NC(=S)NN=C2CCC(C(C)(C)C)CC2)c1 (stereo not drawn)	4	3%	-2%	?	22µM*	-12%
5	FC(F)(F)c1cccc(OCCOCCn2cncn2)c1	0	-3%	42%	?	?	-16%
6	CCN(CC)c1ccc(/C=N/NS(=O)(=O)c2cccc([N+](=O)[O-])c2)cc1	0	0%	-26%	?	11µM*	3%
7	COc1cccc(N2CCN(S(=O)(=O)c3cc4c(cc3C)N(C)CCO4)CC2)c1	1	-4%	6%	23%	/	17%
8	COc1cc(CNCc2ccc(Br)cc2)cc(OC)c1	1	-2%	17%	?	?	3%
9	Cc1cccc(/C=N/c2sc3c(c2C(=O)OC(C)(C)C)CCN(C)C3)c1O	-3	/	-16%	-11%	?	9%
10	Cc1ccc(CNC(=O)CSc2ccc(-c3ccccn3)nn2)cc1	7	-8%	7%	3%	0%	1%
11	COc1ccc(C)cc1N(C)C(=O)c1sc2nc3n(c(=O)c2c1C)CCCCC3	-1	11%	-54%	13%	10µM*	-1%
12	O=C(CSc1ccc2nnc(-c3ccccn3)n2n1)Nc1ccc2c(c1)OCO2	3	-7%	3%	9%	-15%	-1%
13	CN1CCN(CC(=O)Nc2ccccc2C(F)(F)F)CC1	6	-9%	-2%	?	4.5µM*	1%
14	Cc1ccc(SCCN2CCN(Cc3ccccc3)CC2)cc1	6	-9%	13%	?	/	1%
15	Cc1c(/C=N/Nc2ccc(F)cc2)c(O)n(C)c(=O)c1C#N	-18	24%	?	-17%	1.3µM*	21%

# Given with values under each structure: entries from further up
# Sequence of screens: PI4K2A inh | ERG Ets-DNA blk | RGS4 inhibitor | 12-LOX inh | G9a block | GLS inh
9) Cc1cccc(/C=N/c2sc3c(c2C(=O)OC(C)(C)C)CCN(C)C3)c1O
  -3 | / | -16% | -11% | ? | 9%
10) Cc1ccc(CNC(=O)CSc2ccc(-c3ccccn3)nn2)cc1
  7 | -8% | 7% | 3% | 0% | 1%

# (cont.)
nr	canonical_smiles	PI4K2A inh	ERG Ets-DNA blk	RGS4 inhibitor	12-LOX inh	G9a block	GLS inh
16	C=CCc1cc(Cl)ccc1OCCCNCCO	-2	-7%	-22%	?	/	7%
17	COc1ccc(CN2CCN(c3ccccn3)CC2)cc1OCc1ccccc1	7	-7%	-3%	?	?	7%
18	CN(Cc1ccccc1)C(=O)c1nc(-c2ccc(Cl)cc2)n2c1CCCCC2	1	11%	-3%	?	?	2%
19	CCOC(=O)c1sc(=S)n(-c2ccc(OC)cc2)c1N	1	-4%	1%	154%[activator]	/	0%
20	Cc1cnc(NC(=O)C(C)N2CCN(C)CC2)s1 (stereo not drawn)	5	-6%	36%	2.5µM*	13µM*	-6%
21	Cn1c(Cc2csc(N)n2)nnc1SCC(=O)NC1CCCCC1	9	2%	11%	89%[activator]	56µM*	11%
22	CC(NCc1ccccc1Cl)C(=O)Nc1ccc(S(=O)(=O)N2CCCC2)cc1 (stereo not drawn)	0	5%	10%	?	14µM*	1%
23	Cc1cc2c(cc1C)N(C(=O)CSc1nncn1C)C(C)(C)c1ssc(=S)c1-2	1	/	-11%	?	8.9µM*	12%
24	CN(Cc1ccccc1)C(=O)C1CCN(Cc2ccc(F)cc2)CC1	1	-5%	6%	?	7.9µM*	11%
25	COc1ccc(NC(=O)CSc2nnc(-c3ccccn3)n2N)c(OC)c1	3	-9%	14%	-17%	-33%	5%
26	Cc1cccc(NCc2ccc(O)c3ncccc23)c1	0	8%	-44%	?	/	4%
27	CCOC(=O)C1CCCCN1Cc1ccc(C(F)(F)F)cc1 (stereo not drawn)	-5	8%	20%	133%[activator]	8.9µM*	5%
28	C/C(=N\NC(=S)NC1CCCCC1)c1ccc(C)o1	7	5%	-25%	5µM*	50µM*	16%
29	Cc1cc(Nc2ccccc2)c2c([N+](=O)[O-])cc(C)c(C)c2n1	-2	1%	36%	10%&-7%	14µM*	1%
30	Fc1cccc(Cc2noc(CN3CCSCC3)n2)c1	-15	6%	0%	1%	/	0%
31	Cc1cc(C)n(-c2nc(O)cc(=O)[nH]2)n1	-5	-3%	1%	0%	4.5µM*	-4%
32	Cc1c(Cl)cccc1Nc1nc(N)nc(CN2CCCCCC2)n1	2	2%	-28%	0%	26%[12.7 µM]	10%
33	Cn1c(-c2cccc([N+](=O)[O-])c2)cnc1NCc1ccc(C#N)cc1	-1	-8%	-13%[56.9 µM]	?	10µM*	3%
34	CSc1ccc(CN2CCC(N3CC(C)OC(C)C3)CC2)cc1 (stereo not drawn)	7	-6%	-11%	?	/	-8%
35	CCCCOCC(O)CN1CCN(C(C)=O)CC1 (stereo not drawn)	2	/	-8%	-19%	11µM*	21%
36	COc1ccc(Nc2nc(-c3sc(C)nc3C)cs2)c(OC)c1	-1	4%	?	?	45µM*	18%
37	O=S(=O)(c1ccc(Cl)c(C(F)(F)F)c1)N1CCN(CC(O)COc2ccccc2F)CC1 (stereo not drawn)	-4	-9%	8%	?	28µM*	?
38	CC(C)Cn1c(Cc2ccccc2)n[nH]c1=S	4	-5%	-20%	?	13µM*	-28%
39	COCCN(CCOC)S(=O)(=O)c1ccc(C(=O)Nc2nnc(CSC)o2)cc1	-2	2%	5%[11.4 µM]	0%	?	7%
40	O=C(Nc1ccccc1)O/N=C(\c1ccccc1)c1ccccn1	-2	8%	1%	12%	?	42%[activator]
41	CCS(=O)(=O)N1CCCc2cc(C(=O)Nc3cc([N+](=O)[O-])ccc3C)ccc21	0	0%	6%	1%	-49%[59 µM]	4%
42	O=C(Nc1ncccn1)C1=C(O)c2ccccc2S(=O)(=O)N1Cc1ccccc1	2	-6%	19%	4%&17%	-32%[2.33 µM]	-5%
43	O=C1C(=O)N(CCN2CCOCC2)C(c2ccccn2)/C1=C(/O)c1ccccc1 (stereo not drawn)	1	4%	-32%	-17%	13µM*	5%
44	COc1ccc(CN2CCN(C3CCC3)CC2CCO)c(C)c1C (stereo not drawn)	-3	1%	-13%	270%[activator]	/	-23%
45	O=C(NCCCNC1CCCCC1)c1ccc(/C=N/O)nc1	-2	-3%	17%	-1%	?	10%
46	COC1CCCCC1Nc1ccc(C)c(C)c1 (stereo not drawn)	-2	/	3%	-1%	2µM*	14%
47	COc1ccc(OC)c(C2CC(=O)Nc3ccc4ccccc4c32)c1 (stereo not drawn)	-1	5%	6%	?	?	2%
48	Cc1ccc(-c2cnc(NCc3ccc(C(C)C)cc3)n2C)cc1	2	-2%	0%	?	2.8µM*	-2%
49	Cc1cc(C)c(OCCCCN(C)C)c(Br)c1	0	4%	-7%	-15%	10µM*	-1%
50	Cc1cc(C)cc(-n2ccnc2SCC(=O)Nc2ccc3c(c2)OCO3)c1	10	-4%	1%	-4%	20µM*	-10%
51	Oc1ccccc1-c1nc2cnccn2c1Nc1ccc2c(c1)OCCO2	-2	/	4%	4%	?	0%
52	COc1ccc(CNc2ncc(-c3ccc(Br)cc3)n2C)cc1OC	2	-4%	-1%	-64%	/	9%
53	O=C(/C=C/c1ccco1)Nc1cccc2cccnc12	?	12%	?	?	-5%[59 µM]	0%
54	N#Cc1nc(COc2cccc(Cl)c2)oc1N1CCCC1	3	1%	15%	?	45µM*	-2%
55	Cc1ccc(OCCOCCn2ccnc2)c(Br)c1	16	-14%	-21%	?	7.9µM*	2%
56	CCc1ccc(OCCOCCN2CCN(C)CC2)cc1	-1	-2%	-20%	-59%	2.8µM*	-2%
57	O=S(=O)(Cc1cccc(C(F)(F)F)c1)c1ncn[nH]1	-3	12%	-5%	2%	/	-16%
58	O=C(COC(=O)c1ccco1)Nc1nnc(-c2ccccc2)o1	-2	-12%	-3%	10%	?	8%
59	COc1ccc(-n2nc([N+](=O)[O-])c(=NCCc3cccc(C)c3)n2O)cc1	-3	0%	0%	-12%	32µM*	-8%
60	CCOC(=O)c1cc(C#N)c(N2CCCCC2)nc1-c1ccccc1	-3	2%	10%	0%	/	3%

# Ordered by value in PI4K2A inh (high to low): 3 from the list above.
no. | SMILES | PI4K2A inh | ERG Ets-DNA blk | RGS4 inhibitor | 12-LOX inh | G9a block | GLS inh
2 | COc1ccccc1C=NN=C1c2ccccc2-c2ccccc21 | 9 | 9% | -10% | -6% | / | -8%
34 | CSc1ccc(CN2CCC(N3CC(C)OC(C)C3)CC2)cc1 (stereo not drawn) | 7 | -6% | -11% | ? | / | -8%
43 | O=C1C(=O)N(CCN2CCOCC2)C(c2ccccn2)/C1=C(/O)c1ccccc1 (stereo not drawn) | 1 | 4% | -32% | -17% | 13µM* | 5%

# New compounds follow
nr	canonical_smiles	PI4K2A inh	ERG Ets-DNA blk	RGS4 inhibitor	12-LOX inh	G9a block	GLS inh
61	CCCN(CCO)Cc1ccc(Cl)c(Cl)c1	13	-1%	11%	?	?	-1%
62	COc1cccc(NC(=O)CN(C)CC(=O)Nc2ccc(C)cc2Cl)c1	0	-3%	-3%	-21%	3.5µM*	-17%
63	CC(C)C[C@H](NC(=O)c1nc[nH]c1C(=O)N1CCNCC1)C(=O)OCc1ccccc1	-7	-5%	-3%	17%	11%[2.33 µM]	1%
64	CCCCCCNCC(=O)N1CCC(Cc2ccccc2)CC1	2	-1%	-16%	-54%	18µM*	-5%
65	C/C(=C\C(=O)c1ccccc1)Nc1ccc2c(c1)OCO2	7	/	-48%	-13%	?	20%
66	Clc1ccc(SCCCN2CCCCC2)cc1	6	-9%	18%	?	/	3%
67	Cc1cccc(CN2CCC(N3CC(C)OC(C)C3)CC2)c1 (stereo not drawn)	-12	-3%	-4%	?	/	3%
68	Cc1ccccc1NC(=S)NCc1ccc2c(c1)cc(C)n2C	6	-15%	3%	?	-3%	6%
69	O=C(CN1CCN(C2CCCCC2)CC1)Nc1ccccc1-c1ccccc1	0	/	14%	4%	?	-12%

# Some values from the results shown:
# `C/C(=C\C(=O)c1ccccc1)Nc1ccc2c(c1)OCO2` – 12-LOX inh = -13%
# `COc1cccc(NC(=O)CN(C)CC(=O)Nc2ccc(C)cc2Cl)c1` – G9a block = 3.5µM*
# `CCCCCCNCC(=O)N1CCC(Cc2ccccc2)CC1` – RGS4 inhibitor = -16%
